Screens deposited in PubChem by Broad Institute.
Yeast UUG start – modulators of start codon recognition fidelity in yeast; S. cerevisiae UUG-firefly luciferase reporter, luminescence/redox ratio; activity score, % at 18.7 µM; 0.13% of 350,000 active; AID 602363;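 active means replicate mean at a twofold rise or more, about +100% in these data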;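 further: firefly luciferase made from a UUG start codon reports start codon fidelity; reporter light over untreated wells divided by growth signal over untreated wells; some hits fall short of that in this replicate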
Active calls of the source: *. Some of the compounds tested (hit frequency here may not be typical).

Yeast UUG start	SMILES
1.8	COc1ccc(NC(=O)N2C[C@@H](O)COC[C@H]3O[C@@H](CC(=O)N4CCOCC4)CC[C@@H]32)cc1
-3.5	C[C@H](CO)N1C[C@H](C)[C@H](CN(C)C)Oc2c(NS(=O)(=O)c3ccc(F)cc3)cccc2C1=O
-4.2	COCC(=O)Nc1ccc2c(c1)[C@H]1C[C@@H](CC(=O)NCc3cc(F)ccc3F)O[C@@H](CO)[C@H]1O2
10.8	O=C(Nc1ccccc1F)N1C[C@H]2[C@@H](c3ccccc31)[C@H](CO)N2C(=O)C1CCCC1
-6.1	COc1ccc(C(=O)N2C[C@@H]3[C@H](c4ccccc42)[C@@H](CO)N3C(=O)NC(C)C)cc1
11.7	CN1C(=O)c2cc(NS(=O)(=O)c3ccc(F)cc3)ccc2OC[C@H]2O[C@H](CC(=O)NCC(F)(F)F)CC[C@H]21
3.5	COc1ccc(S(=O)(=O)N(C)C[C@H]2Oc3ccc(NC(=O)Nc4c(C)noc4C)cc3C(=O)N([C@@H](C)CO)C[C@@H]2C)cc1
2.1	C[C@@H]1CN([C@H](C)CO)C(=O)c2cc(NC(=O)Nc3ccc(C(F)(F)F)cc3)ccc2O[C@H]1CN(C)C(=O)Nc1ccccc1
11.6	CCCNC(=O)N1[C@@H](CO)[C@@H](c2ccccc2)[C@@H]1CNC(=O)c1cccc(F)c1
-3.6	O=C(C[C@@H]1CC[C@@H]2[C@H](COC[C@@H](O)CN2Cc2ccccc2)O1)N[C@H]1CCN(Cc2ccccc2)C1
4.1	CCC(=O)N1[C@H](CO)[C@@H](c2ccccc2)[C@@H]1CN(C)C(=O)c1ccccc1F
-2.5	O=C(Nc1ccc(F)cc1)N1[C@@H]2CNc3ccccc3[C@@H]2[C@@H]1CO
1.3	CC(C)NC(=O)N(C)C[C@@H]1Oc2ccc(NC(=O)CCC(F)(F)F)cc2CC(=O)N([C@@H](C)CO)C[C@H]1C
-3.6	COC(=O)C[C@H]1C[C@@H]2c3cc(NC(=O)Nc4ccccc4F)ccc3O[C@@H]2[C@H](CO)O1
9.2	CO[C@@H]1CN(C)C(=O)c2cc(NS(=O)(=O)c3cccc(Cl)c3)ccc2OC[C@@H](C)N(C(=O)Cc2cccnc2)C[C@H]1C
6.7	O=S(=O)(c1ccccc1F)N1CCCCN2[C@H](CO)[C@@H](c3ccc(-c4cccnc4)cc3)[C@@H]2C1
1.5	CN1CCN(C(=O)C[C@@H]2CC[C@H]3[C@@H](COC[C@@H](O)CN3Cc3ccc(Oc4ccccc4)cc3)O2)CC1
-4.1	O=S(=O)(c1ccccc1F)N1CCCCN2[C@H](CO)[C@H](c3ccc(-c4cccnc4)cc3)[C@@H]2C1
-18.8	O=C(NC[C@H]1N[C@H](CO)[C@@H]1c1ccc(-c2ccccc2)cc1)C1CCC1
23.8	CN1C(=O)c2cc(NC(=O)Cc3ccccc3)ccc2OC[C@H]2O[C@@H](CC(=O)NC3CCC3)CC[C@H]21

Seven compounds out of the list above, ordered by their value in Yeast UUG start, highest first:
Yeast UUG start	SMILES
3.5	COc1ccc(S(=O)(=O)N(C)C[C@H]2Oc3ccc(NC(=O)Nc4c(C)noc4C)cc3C(=O)N([C@@H](C)CO)C[C@@H]2C)cc1
1.8	COc1ccc(NC(=O)N2C[C@@H](O)COC[C@H]3O[C@@H](CC(=O)N4CCOCC4)CC[C@@H]32)cc1
1.3	CC(C)NC(=O)N(C)C[C@@H]1Oc2ccc(NC(=O)CCC(F)(F)F)cc2CC(=O)N([C@@H](C)CO)C[C@H]1C
-2.5	O=C(Nc1ccc(F)cc1)N1[C@@H]2CNc3ccccc3[C@@H]2[C@@H]1CO
-4.1	O=S(=O)(c1ccccc1F)N1CCCCN2[C@H](CO)[C@H](c3ccc(-c4cccnc4)cc3)[C@@H]2C1
-6.1	COc1ccc(C(=O)N2C[C@@H]3[C@H](c4ccccc42)[C@@H](CO)N3C(=O)NC(C)C)cc1
-18.8	O=C(NC[C@H]1N[C@H](CO)[C@@H]1c1ccc(-c2ccccc2)cc1)C1CCC1

(cont.)
Yeast UUG start	SMILES
12.1	CN1C(=O)c2cc(NS(C)(=O)=O)ccc2OC[C@@H]2O[C@@H](CC(=O)O)CC[C@H]21
5.8	C[C@@H]1CN([C@H](C)CO)C(=O)c2cccc(NC(=O)Nc3ccc(F)cc3)c2O[C@H]1CN(C)Cc1ccc(C(F)(F)F)cc1
62.2	C[C@H](O)C#Cc1ccc([C@@H]2[C@@H](CO)N3CCCCN(C(=O)c4ccncc4)C[C@H]23)cc1
-7.0	O=C(C[C@H]1CC[C@H]2[C@@H](COC[C@@H](O)CN2C(=O)c2ccncc2)O1)NC1Cc2ccccc2C1
12.2	COc1ccc(NC(=O)Nc2ccc3c(c2)CC(=O)N([C@@H](C)CO)C[C@H](C)[C@H](CN(C)C(=O)Nc2ccc(F)cc2)O3)cc1
-1.1	CC(C)CC#Cc1ccc([C@@H]2[C@H](CO)N3CCCCN(C(=O)NC4CCCC4)C[C@@H]23)cc1
-11.9	CNC[C@@H]1Oc2c(NC(=O)c3cc(C)nn3C)cccc2C(=O)N([C@@H](C)CO)C[C@@H]1C
17.6	COCC#Cc1ccc([C@@H]2[C@H](CO)N3CCCCN(Cc4ccncc4)C[C@@H]23)cc1
-5.8	CO[C@@H]1CN(C)C(=O)c2cc(NC(=O)C3CC3)ccc2OC[C@H](C)N(Cc2ccc(F)cc2)C[C@@H]1C
0.4	COC(=O)C[C@H]1CC[C@@H]2[C@@H](COc3ccc(NC(=O)Nc4c(C)noc4C)cc3C(=O)N2C)O1
-14.7	COc1ccccc1-c1ccc2c(c1)[C@H]1[C@H](CCN1S(=O)(=O)c1ccccc1F)[C@H](CO)N2
14.6	CCC(=O)N1C[C@@H](C)[C@H](OC)CN(C)C(=O)c2cc(NC(=O)c3ccccc3)ccc2OC[C@H]1C
2.3	C[C@@H]1CN([C@@H](C)CO)C(=O)c2cc(NS(=O)(=O)c3cn(C)cn3)ccc2O[C@@H]1CN(C)S(=O)(=O)c1ccc(F)cc1
-5.4	C[C@H](O)C#Cc1ccc([C@@H]2[C@@H](CO)N3CCCCN(S(=O)(=O)Cc4ccccc4)C[C@H]23)cc1
1.8	C[C@@H]1CN([C@@H](C)CO)C(=O)c2cc(NS(=O)(=O)c3ccc(Cl)cc3)ccc2O[C@@H]1CN(C)Cc1ccc(C(=O)Nc2ccccc2N)cc1
20.7	COc1ccc(S(=O)(=O)N2CCCCN3[C@@H](CO)[C@H](c4ccc(C#CC5CC5)cc4)[C@@H]3C2)cc1
-7.4	C[C@@H]1CN([C@@H](C)CO)C(=O)Cc2cc(NC(=O)Nc3ccc(F)cc3)ccc2O[C@@H]1CN(C)C(=O)Nc1ccccc1
14.5	O=C(C[C@@H]1CC[C@@H]2[C@H](COC[C@@H](O)CN2S(=O)(=O)c2cccc(Cl)c2)O1)N1CCOCC1
4.3	CC(C)N(C[C@@H]1[C@@H](c2ccccc2)[C@H](CO)N1S(C)(=O)=O)C(=O)CN(C)C
8.5	C[C@H](O)C#Cc1ccc([C@@H]2[C@H](CO)N3CCCCN(C(=O)Nc4ccccc4)C[C@@H]23)cc1
-9.9	O=S(=O)(c1ccc(F)cc1)N1CCCCN2[C@H](CO)[C@@H](c3ccc(-c4cncnc4)cc3)[C@H]2C1
56.0	O=C(Nc1ccc(F)cc1)N1C[C@@H]2[C@H](c3ccccc31)[C@H](CO)N2Cc1cocn1
-7.4	CCS(=O)(=O)Nc1ccc2c(c1)C(=O)N(C)[C@@H]1CC[C@H](CC(=O)OC)O[C@@H]1CO2
-3.2	CO[C@@H]1CN(C)C(=O)c2ccc(NC(=O)C3CCC3)cc2OC[C@H](C)N(Cc2ccncc2)C[C@H]1C
3.2	OC[C@H]1[C@@H]2c3ccccc3NC[C@@H]2N1CC1CCCCC1
19.6	CN(C)C(=O)c1ccc(-c2ccc([C@@H]3[C@H]4CN(S(C)(=O)=O)CCCCN4[C@H]3CO)cc2)cc1
9.0	C[C@@H]1CN([C@@H](C)CO)C(=O)c2cccc(NC(=O)c3ccc(-c4nccs4)cc3)c2O[C@@H]1CN(C)C(=O)NC1CCCCC1
-6.1	CCS(=O)(=O)Nc1ccc2c(c1)C(=O)N(C)C[C@H](OC)[C@@H](C)CN(C(=O)NC(C)C)[C@H](C)CO2
3.7	Cc1cccc(S(=O)(=O)N2CCCCN3[C@H](CO)[C@@H](c4ccc(C#C[C@H](C)O)cc4)[C@@H]3C2)c1
-17.3	O=C(C1CCC1)N1CC[C@@H]2[C@H](CO)Nc3ccc(-c4cccc(F)c4)cc3[C@@H]21
2.7	COCC(=O)NC[C@H]1[C@@H](c2ccc(C3=CCCC3)cc2)[C@H](CO)N1C(=O)C1CC1
-6.1	C[C@H]1CN([C@@H](C)CO)C(=O)c2c(c3ccccc3n2C)-c2ccccc2CO[C@H]1CN(C)C(=O)c1ccccc1
-5.0	CO[C@@H]1CN(C)C(=O)c2cc(NC(=O)c3ccc(F)cc3)ccc2OC[C@@H](C)N(C(C)=O)C[C@@H]1C
4.9	C[C@@H](O)C#Cc1ccc([C@H]2[C@@H](CO)N3CCCCN(C(=O)c4ccc5c(c4)OCO5)C[C@H]23)cc1
-6.3	CO[C@@H]1CN(C)C(=O)c2cc(NC(=O)C3CC3)ccc2OC[C@H](C)NC[C@H]1C
-12.0	CN1CCN(C(=O)C[C@@H]2CC[C@H]3[C@@H](COC[C@@H](O)CN3CC3CCCCC3)O2)CC1
1.3	COc1ccc(NC(=O)N2CCCCN3[C@H](CO)[C@H](c4ccc(-c5ccccc5F)cc4)[C@@H]3C2)cc1
-11.4	O=C(C[C@H]1CC[C@@H]2[C@H](COC[C@H](O)CN2Cc2cccc(Cl)c2)O1)N1CCOCC1
-15.1	COc1cccc(S(=O)(=O)N2CC[C@H]3[C@@H](CO)N(C)c4ccc(C#Cc5cccnc5)cc4[C@H]32)c1
-20.5	O=C(C[C@@H]1CC[C@H]2[C@@H](COC[C@H](O)CN2C(=O)Nc2ccc(Cl)c(Cl)c2)O1)NCc1ccc(Cl)c(Cl)c1
-4.8	C[C@H](CO)N1C[C@H](C)[C@@H](CN(C)C(=O)Nc2ccc(F)cc2)Oc2ccc(NC(=O)C3CC3)cc2CC1=O
8.6	COc1ccc(S(=O)(=O)N2CCCCN3[C@H](CO)[C@@H](c4ccc(C#CC(C)C)cc4)[C@@H]3C2)cc1
11.2	CC(=O)N1[C@H](CN(C(=O)c2ccccc2)C(C)C)[C@@H](c2ccccc2)[C@@H]1CO
9.6	N#Cc1ccc(-c2ccc3c(c2)[C@@H]2[C@@H](CCN2C(=O)C2CC2)[C@@H](CO)N3)cc1
-4.7	O=S(=O)(c1ccc(F)cc1)N1CC[C@@H]2[C@@H](CO)Nc3ccc(Br)cc3[C@@H]21
2.0	C[C@@H]1CN([C@@H](C)CO)C(=O)c2cc(NC(=O)Cc3cn(C)c4ccccc34)ccc2O[C@@H]1CN(C)C(=O)Nc1ccc2c(c1)OCO2
-2.0	O=C(C[C@H]1CC[C@@H]2[C@H](COC[C@H](O)CN2CCc2ccccc2)O1)NCc1ccc(Oc2ccccc2)cc1
1.2	C[C@H]1CN([C@@H](C)CO)C(=O)c2cc(NC(=O)C3CC3)ccc2O[C@@H]1CN(C)Cc1ccccc1
16.1	O=C(C[C@H]1CC[C@H]2[C@@H](COC[C@@H](O)CN2S(=O)(=O)c2cccc(Cl)c2)O1)Nc1ccccc1
-21.1	CN(C)CC(=O)N1CCCCN2[C@H](C1)[C@@H](c1ccc(-c3cccnc3)cc1)[C@@H]2CO
8.8	COc1ccccc1NC(=O)N1CC[C@@H]2[C@@H](CO)N(C)c3ccc(-c4cccc(F)c4)cc3[C@@H]21
-4.4	C[C@H]1CN([C@@H](C)CO)C(=O)c2cc(NS(=O)(=O)c3cn(C)cn3)ccc2O[C@@H]1CN(C)Cc1ccc(-c2ccccc2)cc1
-4.3	CCC(=O)Nc1ccc2c(c1)C(=O)N(C)C[C@H](OC)[C@@H](C)CN(C(=O)c1ccccn1)[C@H](C)CO2
-16.4	COCC(=O)Nc1ccc2c(c1)C(=O)N(C)C[C@H](OC)[C@H](C)CN(C(=O)c1ccncc1)[C@H](C)CO2
-12.4	CC=Cc1ccc2n(c1=O)C[C@@H]1[C@@H](CO)[C@H](C(=O)NCc3ccncc3)N(Cc3cncnc3)[C@H]21 (mixture of isomers)
-3.6	O=C(C[C@@H]1CC[C@H]2[C@@H](COC[C@@H](O)CN2Cc2nccs2)O1)NCc1ccc(-c2ccccc2)cc1
-21.9	O=C(C[C@@H]1CC[C@@H]2[C@H](COC[C@@H](O)CN2C(=O)Nc2ccc(F)cc2)O1)NCCc1ccncc1
-15.2	CN1c2ccc(-c3ccccc3F)cc2[C@@H]2[C@@H](CCN2S(=O)(=O)c2ccc(F)cc2)[C@@H]1CO
0.2	C/C=C/c1ccc([C@@H]2[C@@H](CN(CC)C(C)=O)N(C(=O)C3CCC3)[C@H]2CO)cc1
-3.6	CCC(=O)N1[C@H](CNC(=O)CN2CCOCC2)[C@@H](c2ccccc2)[C@@H]1CO

Following part:
Yeast UUG start	SMILES
-2.1	C/C=C/c1ccc([C@@H]2[C@H](CO)N[C@H]2CNS(=O)(=O)c2ccccc2)cc1
-3.6	COc1ccccc1-c1ccc2c(c1)[C@@H]1[C@@H](CCN1C(=O)C1CCOCC1)[C@@H](CO)N2
-8.0	Cc1ccc(S(=O)(=O)Nc2ccc3c(c2)CC(=O)N([C@H](C)CO)C[C@H](C)[C@@H](CN(C)C(=O)Nc2ccc(F)cc2)O3)cc1
6.0	Cc1ccc(S(=O)(=O)Nc2cccc3c2O[C@H](CN(C)C(=O)Nc2ccc4c(c2)OCO4)[C@@H](C)CN([C@H](C)CO)C3=O)cc1
-8.0	COc1cccc(-c2ccc([C@@H]3[C@@H](CO)N4CCCCN(C(=O)NC(C)C)C[C@H]34)cc2)c1
83.4	O=C(c1cccnc1)N1C[C@@H]2[C@H](c3ccccc31)[C@@H](CO)N2C(=O)C1CCCC1
-2.8	C/C=C/c1ccc([C@H]2[C@@H](CNC(=O)CC3CC3)N(C(=O)CC)[C@H]2CO)cc1

Looked up by structure from the entries so far (2):
Yeast UUG start	SMILES
-8.0	COc1cccc(-c2ccc([C@@H]3[C@@H](CO)N4CCCCN(C(=O)NC(C)C)C[C@H]34)cc2)c1
6.0	Cc1ccc(S(=O)(=O)Nc2cccc3c2O[C@H](CN(C)C(=O)Nc2ccc4c(c2)OCO4)[C@@H](C)CN([C@H](C)CO)C3=O)cc1
